# Assay outcomes deposited in PubChem by ICCB-Longwood Screening Facility, Harvard Medical School.
# CapD inh – inhibitors of Bacillus anthracis CapD enzyme; purified CapD enzyme, fluorescence intensity read-out; hits give low values; some hits fall short of the stated cut; z-score (no concentration beside the values); 140,000 tested, 0.23% active; AID 492967;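 active = z-score under -4 in either of two replicates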;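 note: stock transfer was 100 nL into about 40 µL; score is relative to mean and spread of the plate; one replicate is shown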
# AID504770 – growth inhibitors of E. coli YBA685 in a screen for V. cholerae RctB (chromosome II replication) inhibitors. E. coli YBA685 rctB-dependent plasmid, OD600 growth, 3 h; hits give low values. z-score (concentration not given with the values). 130,000 tested, 0.27% active;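 active = z-score under -2 on both plates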;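 note: wells of about 30 µL received 100 nL stock; score is relative to mean and SD of the test wells; the first replicate is given; strong numbers were not always called active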
# An asterisk follows results filed as active; . = no result given.
# The opening 2 entries (preview)
SMILES,CapD inh,AID504770
Cc1ccc(-n2nnnc2S(C)(=O)=O)c(C)c1,-0.1,-1.1
Cn1c(=O)oc2cc(N)ccc21,.,1.65

# The whole of this part (from the top)
SMILES,CapD inh,AID504770
Cc1ccc(-n2nnnc2S(C)(=O)=O)c(C)c1,-0.1,-1.1
Cn1c(=O)oc2cc(N)ccc21,.,1.65
CCS(=O)(=O)C1=NSC2=NC(=O)/C(=C\c3ccco3)C(=N)N21,-3.41,-0.45
CN(Cc1ccccc1)c1nnc(NC(=O)Cn2c(=O)oc3ccccc32)s1,0.055,0.55
Nc1nc(CC(=O)c2ccccc2)cs1,.,-1
O=C(Nc1ccc(Oc2cccnc2)nc1)c1ccc(C(F)(F)F)cc1,-1.04,-0.8
CCNc1nc(SCCOc2ccccc2)nc(N(C)C)n1,-0.08,-0.85
O=C(OC1CCSC1)c1cc(C(F)(F)F)cc(C(F)(F)F)c1 (centres undefined),0.665,0.65
O=S(=O)(c1ccc(Cl)cc1)N(Cc1ccccc1)S(=O)(=O)c1ccc(Cl)cc1,0.145,0.45
CCn1c(-c2ccc3c(c2)OCCO3)cnc1SCC(=O)Nc1ccccc1C(=O)NC1CC1,.,-0.75
COCCNCc1ccccc1,.,0.4
COc1ccc(CC(=O)N/N=C2/CC(=O)CC(C)(C)C2)cc1,1.73,-0.55
N#CC(C(=O)NCc1ccco1)=C(SCc1ccc(Cl)cc1)SCc1ccc(Cl)cc1,6.71,.
c1coc(-c2cn3c(n2)sc2ccccc23)c1,-0.02,1.95
O=C(Nc1ccc(S(=O)(=O)N2CCCCC2c2cccnc2)cc1)c1cccc(F)c1 (centres undefined),-0.25,.
Cc1ccc(NC(=O)CN(C)C(=O)CSc2nnc(-c3ccccc3)n2N)cc1,.,-0.05
NCCCc1ccc(F)cc1,.,-0.8
CC12c3ccccc3C(c3ccccc31)C1C(=O)N(c3ccc(C#N)cc3)C(=O)C12 (centres undefined),-0.215,.
O=C(Nc1ccccc1)N1CCCC(c2nc(-c3cccs3)no2)C1 (centres undefined),.,-0.7
CCSc1nc2sc3c(c2c(=O)n1-c1ccccc1)CC(C)(C)OC3,-0.35,-0.35
CCOC(=O)C(C)n1cnc2sc3c(c2c1=O)CCC3 (centres undefined),0.19,0.55
O=c1ccc(C(F)(F)F)cn1Cc1ncc(-c2ccccc2)o1,.,0.9
COc1ccc(OC)c(-n2c(CNC(=O)c3ccco3)nnc2SCC(=O)Nc2nc3ccccc3s2)c1,-1.17,.
O=C(O)COc1ccc(/C=C2\C(=O)NC(=O)N(c3cccc(F)c3)C2=O)cc1Cl,0.05,.
Cc1ccc2c(c1)c1c3n2CCN(C/C(=N/O)c2ccc(Br)cc2)C3CCC1 (centres undefined),-0.33,-0.9
O=C(c1cccc(N2CCCC2=O)c1)N1CCOCC1,-0.27,-0.75
CCN1C(=O)NC(c2ccc([N+](=O)[O-])cc2)C(C(=O)OCCc2ccccc2)=C1C (centres undefined),-0.04,.
COc1nc(N2CCc3ccccc32)nc(N2CCc3ccccc32)n1,0.32,-0.65
N#CCCN(CCOC(=O)NNC(=O)CC1Sc2ccccc2NC1=O)c1ccccc1 (centres undefined),-0.45,.
O=S(=O)(c1ccc(-c2cn3cc(Cl)ccc3n2)cc1)N1CCCCC1,2.97,.
COc1ccc(N2C(=O)CS/C2=N/S(=O)(=O)c2ccc(F)cc2)cc1,-0.945,1.05
COc1cc(Br)c(CN2CCCC(COC(=O)NNC(=O)C(C)Sc3ccc(Cl)cc3)C2)cc1OC (centres undefined),-1.04,.
COc1cccc(/C=N/NC(=O)c2nnn(-c3nonc3N)c2CN2CCCCCC2)c1OC,0.905,.
NC(=O)N/N=C(/C=C/c1ccccc1)C1(O)CCCCC1,0.18,1.3
Cc1ccc(NC(=O)N2CCC(CN3CCOCC3)CC2)cc1F,-1.17,2.1
O=C(O)c1c[nH]c(=O)c2ccccc12,16.8,-0.75
CC1=C(C(=O)Nc2ccccc2)C(c2ccc(C)o2)n2c(s/c(=C/c3ccc(N(C)C)cc3)c2=O)=N1 (centres undefined),-1.17,.
O=C(NCC1COc2ccccc2O1)c1cn(-c2ccc(F)cc2)nn1 (centres undefined),1.13,0.95
O=C(c1ccccc1O)N1N=C(C(F)(F)F)CC1(O)C(F)(F)F (centres undefined),-2.3,-0.25
CC(C)(C)OC(=O)N1CC=C2C(C#N)=C(N)C(C#N)(C#N)C(c3ccc(C(F)(F)F)cc3)C2C1 (centres undefined),2.38,.
CCOCCn1cnc2sc(C(=O)N3CCOCC3)c(C)c2c1=O,5.48,.
Cc1cc(C)c(O)c(N)c1,.,0.4
Cc1cccc(C)c1NC(=O)C1CCCN(Cc2ccccc2)C1 (centres undefined),0.255,-0.15
C=CCNC(=S)c1c(-c2ccccc2)c2c3n(c(-c4ccc(Br)cc4)cn13)CCCC2,0.505,.
CCOC(=O)c1cnc2ccc(OCC)cc2c1NCCN(C)C,.,-0.95
CCC(=O)N(Cc1cc2cccc3c2n(c1=O)CCC3)c1ccc(OC)cc1,7.48,.
O=C1OC(c2ccc3c(c2)CCC3)c2ccccc21 (centres undefined),0.15,-0.4
O=C(NCCc1ccccc1)C1CCN(c2nnc(-n3cccc3)s2)CC1,-0.14,1.55
CC1(C)c2ssc(=S)c2-c2ccccc2N1C(=O)Cc1ccccc1,0.885,.
O=C1CCC(C(=O)NC2CCCCCC2)=NN1,.,0.05
C=CCOC(=O)C1=C(C)NC2(O)c3ccccc3C(=O)C12O (centres undefined),-0.325,.
Cc1c(C(=O)OCC(=O)N(C)C2(C#N)CCCCC2)oc2ccc(Br)cc12,.,0.1
O=C(/C=C/Nc1ccc(Br)cc1)c1cc(Cl)sc1Cl,-0.6,.
COc1ccccc1N1COc2ccc3c(C)cc(=O)oc3c2C1,41.9,.
CCOC(=O)c1c(C)csc1NC(=O)Nc1c(Cl)cccc1Cl,-0.11,.
CCOC(=O)c1oc2ccccc2c1COC(=O)c1ccc(S(=O)(=O)N2CCCC2)cc1,.,-0.7
CC1CCC(NS(=O)(=O)c2ccc3c(c2)oc(=O)n3C)CC1 (centres undefined),0.055,-0.8
O=C(/C=C/c1cn(-c2ccccc2)nc1-c1cc2ccccc2o1)N1CCOCC1,.,-0.5
C=C(C)Cn1c(SCC(C)O)nc2c1c(=O)[nH]c(=O)n2C (centres undefined),-0.75,-0.55
O=C(O)CC(c1ccc(Cl)c(Cl)c1)N1Cc2ccccc2C1=O (centres undefined),0.33,-0.45

# Remaining list, next part.
SMILES,CapD inh,AID504770
CC(C)(C)C1=CC(=O)C=C(C(C)(C)C)C1=O,-0.09,.
Cc1cc(NCCCO)n2c(nc3ccccc32)c1C#N,46.1,.
COc1ccc(-c2[nH]nc3c2C(c2ccc(OC(=O)c4ccco4)c(OC)c2)C(C#N)=C(N)O3)cc1 (centres undefined),-0.39,.
Clc1cc(Cl)c2c(c1)C=C1CCCCCC1(N1CCOCC1)O2 (centres undefined),-0.53,.
O=C(O)CCN1c2ccccc2Sc2ccccc21,1.29,-0.1
N#CC(C#N)=C1SCN(c2cccc(Cl)c2)CS1,-1.61,-1.5
O=C(O)CC1(CC(=O)Nc2ccccc2N2CCOCC2)CCCC1,1.38,1.05
O=C(/C=C/c1ccc2c(c1)OCO2)/C=C/c1ccc2c(c1)OCO2,8.03,0.65
Cn1c(SCC(=O)NCCN2C(=O)S/C(=C\c3ccccc3F)C2=O)nnc1-c1ccco1,.,0.2
COc1ccc(N=c2ssc3c2-c2cc(C)ccc2N(C)C3(C)C)c(OC)c1,0.315,.
O=C1C(=O)N(CCCN2CCOCC2)C(c2ccccc2)/C1=C(\O)c1ccc(F)cc1 (centres undefined),-0.485,.
CSc1nc(N)n2nc(-c3ccccc3)cc2n1,-0.87,-0.5

# Some of the entries so far, with tabs.
Compound	CapD inh	AID504770
COc1ccc(CC(=O)N/N=C2/CC(=O)CC(C)(C)C2)cc1	1.73	-0.55
N#CC(C(=O)NCc1ccco1)=C(SCc1ccc(Cl)cc1)SCc1ccc(Cl)cc1	6.71	.
c1coc(-c2cn3c(n2)sc2ccccc23)c1	-0.02	1.95
O=C(Nc1ccc(S(=O)(=O)N2CCCCC2c2cccnc2)cc1)c1cccc(F)c1 (centres undefined)	-0.25	.
Cc1ccc(NC(=O)CN(C)C(=O)CSc2nnc(-c3ccccc3)n2N)cc1	.	-0.05
NCCCc1ccc(F)cc1	.	-0.8
CC12c3ccccc3C(c3ccccc31)C1C(=O)N(c3ccc(C#N)cc3)C(=O)C12 (centres undefined)	-0.215	.
O=C(Nc1ccccc1)N1CCCC(c2nc(-c3cccs3)no2)C1 (centres undefined)	.	-0.7
CCSc1nc2sc3c(c2c(=O)n1-c1ccccc1)CC(C)(C)OC3	-0.35	-0.35
CCOC(=O)C(C)n1cnc2sc3c(c2c1=O)CCC3 (centres undefined)	0.19	0.55
O=c1ccc(C(F)(F)F)cn1Cc1ncc(-c2ccccc2)o1	.	0.9
COc1ccc(OC)c(-n2c(CNC(=O)c3ccco3)nnc2SCC(=O)Nc2nc3ccccc3s2)c1	-1.17	.
O=C(O)COc1ccc(/C=C2\C(=O)NC(=O)N(c3cccc(F)c3)C2=O)cc1Cl	0.05	.
Cc1ccc2c(c1)c1c3n2CCN(C/C(=N/O)c2ccc(Br)cc2)C3CCC1 (centres undefined)	-0.33	-0.9
O=C(c1cccc(N2CCCC2=O)c1)N1CCOCC1	-0.27	-0.75

# (continued)
SMILES,CapD inh,AID504770
CCOC(=O)c1sc2sc(C(=O)OCC)c(-c3ccco3)c2c1N,0.11,-0.15
CCN(CC)C(=O)c1sc2nc(-c3ccccc3)ccc2c1N,.,-0.4
COc1ccccc1N(CC(=O)Nc1ccccc1)S(C)(=O)=O,-0.105,-0.2
COC(=O)c1c(C)oc2ccc(N(C(=O)c3ccccc3)S(=O)(=O)c3ccc(Cl)cc3)cc12,0.04,.
COc1cc(/C=N/Nc2ccccc2)ccc1OC(=O)c1ccccc1,-0.375,.
CNC(=O)Nc1cccc(-c2ccnc(C)n2)c1,0.03,-1.35
CCOc1ccc(OCC)c(NC(=O)c2c(C)nc3ccccn23)c1,.,0.05
CCC(C)NS(=O)(=O)c1ccc(NC(=O)c2cccs2)cc1 (centres undefined),4.04,0.65
COc1ccc(NC(=O)/C(=C/c2ccc3c(c2)OCO3)NC(=O)c2ccccc2Br)cc1Cl,-0.795,.
CN1CN(C)c2ccc(Br)c3cccc1c23,.,0.5
Clc1cc(Cl)c(Cl)c(I)c1Cl,0.08,.
Cn1c(SCC(=O)N2CCCc3ccccc32)nnc1-c1ccccc1N,.,0.1
COc1cc(OC)nc(CN2CCNCC2)n1,-0.44,.
CCOC(=O)C1=C(C)N(C)C(=O)N(C)C1c1ccccc1 (centres undefined),0.83,0.05
O=C(NCc1cccs1)C(NS(=O)(=O)c1ccc(Br)s1)c1ccccc1 (centres undefined),0.4,0.25
CN1CCN(C(=O)c2cccc(S(=O)(=O)N(C)C)c2)CC1,-0.11,-0.85
CC1CCCC(C)N1C(=O)CSc1nc2ccccc2[nH]1 (centres undefined),-0.17,-0.25
COCc1c(-c2ccccc2)nn(C)c1Sc1c(Cl)cccc1Cl,-0.425,.
O=C(CCc1nc2ccccc2[nH]c1=O)OCc1ccc(Br)cc1,0.535,-0.35
CCN(CC)S(=O)(=O)c1ccc(-c2nnc(SCC(=O)N3CCCC3)n2CC)cc1,.,1.45
Cc1cc(=O)oc2cc(O)cc(O)c12,37.9,.
Cc1ccccc1Cn1ccc(NC(=O)COCc2cc(-c3cccs3)on2)n1,-0.58,-0.55
COc1cccc(N2CC(=O)N(/N=C/c3ccc(C)o3)CC2=O)c1,-0.96,0.15
CCSc1nnc(-c2ccc(S(=O)(=O)N3CCOCC3)cc2)n1C,.,-0.4
O=c1ccc(S(=O)(=O)N2CCCC2)cn1Cc1c(-c2ccccc2)nc2sccn12,.,-0.1
Cc1cccc(C(=O)O)c1F,-0.09,.
CCOC(=O)c1c(NC(=O)CSc2nnc(CNC(=O)c3ccco3)n2-c2cccc(C)c2)sc2c1CCCC2,0.1,.
CCOc1ccc(Nc2nc(NCc3ccco3)c3ccccc3n2)cc1,-0.465,.
O=C(CCSc1nc(-c2ccco2)cc(C(F)(F)F)n1)N1CCCCC1,-0.38,-0.2
O=c1c(N2CCCC2)csc2ccc(F)cc12,.,-0.4
O=C(CCC(=O)N1CC=C(c2c[nH]c3ccccc23)CC1)NC1CCCC1,4.47,-0.9
CCOc1ccc(NC(=O)CSc2nc3c(sc(=S)n3-c3ccc(OCC)cc3)c3nc4ccccc4n23)cc1,-0.03,.
Clc1cc2nc[nH]c2cc1Cl,-0.01,.
CC(C)SCC(=O)Nc1ccc(Br)cc1,-0.37,0
O=C(NCc1ccc2c(c1)OCO2)[C@@H](c1ccccc1)N1Cc2ccccc2C1=O,-0.25,-0.15
CCc1ccc(N2C(=S)N(C(=O)c3cccs3)C3CC2(C)Oc2ccccc23)cc1 (centres undefined),0.96,0.65
CC(=O)Nc1ncc(CN2CCCCC2)s1,-0.095,-0.8
O=C(CN1c2cccc3cccc(c23)S1(=O)=O)Nc1ccccc1,.,1.55
CCOC(=O)/C(C#N)=C/c1cn(C(=O)c2ccncc2)nc1-c1ccccc1,.,-0.3
CN1c2ccsc2C(=O)/C(=C\Nc2ccncc2)S1(=O)=O,0.45,0.25
Cc1ccc(C(C)C)c(Oc2cc(Cl)ccc2NC(=O)c2cc(Br)cc(Br)c2O)c1,3.35,.
Cc1ccc2c(c1)-c1c(cnn1CC(=O)Nc1ccccc1N1CCN(C)CC1)CO2,0.15,-1
O=C(CCCn1c(SCC(=O)c2ccc(F)cc2)nc2ccccc2c1=O)NCc1ccccc1,-0.16,0.2
FC(F)(F)c1cccc(-n2cc(-c3ccccc3)c3c(NCCN4CCOCC4)ncnc32)c1,-0.29,.
O=C1CCCN1C(=O)CSc1nc(-c2ccccc2)cs1,.,0
Cc1noc(C)c1CN1C(=O)NC(Cc2ccccc2)(Cc2ccccc2)C1=O,.,0.65
CCC(C)(C)C1CCC(=O)/C(=C\c2ccccc2)C1 (centres undefined),0.86,.
COC(=O)c1nn(-c2ccc(Br)cc2C)c(Br)c1C(=O)OC,0.285,0.35
COc1cccc([C@@H]2[C@@H](c3ccc(OC)c(F)c3)N3C=Cc4ccccc4[C@@H]3C2(C#N)C#N)c1,5.21,-0.1
